Assay outcomes: PubChem, several laboratories
RanGTP-Imp inh – disruptors of Ran-importin-beta complex formation – biochemical, FRET, CFP-Ran, YFP-importin-beta, homogeneous, primary screen; cell-free CFP-Ran/YFP-importin-beta FRET ratio; inhibition, % (test concentration not listed); 1.1% of 300,000 active;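 active means most replicates above 15%; inconclusive means exactly half above 15%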;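 further: 0% = DMSO wells and 100% = Ran loaded with GDP instead of GTP; wells of about 40 µL received 100 nL stock; the first replicate is given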
Beta cell apopt – blocks beta cell apoptosis. protection from apoptosis, % (concentration not given with the values). INS-1E cytokine-induced death, ATP luminescence, 48 h; percent of positive-control rescue, neutral wells zero. 0.8% of 300,000 active;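 active means all replicates at 75% or more, or half of them and the mean; inconclusive means half reach 75% but not the mean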;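 further: 0% = cytokine-treated negative control wells and 100% = positive control rescue; higher means more ATP so stronger rescue from cytokine killing; wells of about 40 µL received 100 nL stock; the first replicate is given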
LANA-H2A inh – blocks KSHV LANA binding to histone H2A/H2B; Q9QR71; cell-free LANA-H2A/H2B peptide, fluorescence polarization; inhibition, % (test concentration not listed); 0.6% of 320,000 active; AID 2629; in the data active means inhibition mostly above about 10%, no sharp cut-off; inactive means mostly below about 6.7%;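 further: stock transfer was 7.5 nL into about 10 µL; 0% = median of vehicle wells and 100% = median of positive control wells; one replicate is shown; the record names a cut of 25% in any replicate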
AF4-AF9 inh – MLL-AF4/AF9 protein interaction inhibition | P42568 | AlphaScreen, biotin-AF4 peptide binding to FLAG-AF9 | inhibition, % at 10 µM | 0.47% of 350,000 active;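 active means every replicate reaching a set inhibition limit, whatever the replicate mean, cut at about 25% in these data; inconclusive means mean inhibition reaches that limit but some replicates miss it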;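 further: 0% = plate neutral control median and 100% = total signal loss; the record names both 10 and 1 µM as test concentration; the first replicate is given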
Target sequence (P42568 whole entry, looked up): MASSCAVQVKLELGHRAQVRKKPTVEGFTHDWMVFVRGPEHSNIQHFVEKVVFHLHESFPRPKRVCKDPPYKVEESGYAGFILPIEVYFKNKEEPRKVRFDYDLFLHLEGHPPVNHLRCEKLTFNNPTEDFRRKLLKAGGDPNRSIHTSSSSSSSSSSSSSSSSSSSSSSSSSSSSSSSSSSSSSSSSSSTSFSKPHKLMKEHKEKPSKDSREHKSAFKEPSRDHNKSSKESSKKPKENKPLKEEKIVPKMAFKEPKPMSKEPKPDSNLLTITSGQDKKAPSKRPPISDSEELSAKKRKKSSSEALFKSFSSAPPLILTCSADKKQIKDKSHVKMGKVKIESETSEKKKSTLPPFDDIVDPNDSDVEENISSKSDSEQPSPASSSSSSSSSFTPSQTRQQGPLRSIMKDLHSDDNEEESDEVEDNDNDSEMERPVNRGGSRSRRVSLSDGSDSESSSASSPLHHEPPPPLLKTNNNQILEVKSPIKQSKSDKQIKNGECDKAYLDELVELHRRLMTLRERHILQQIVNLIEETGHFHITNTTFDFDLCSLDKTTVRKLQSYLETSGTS
Calb FLC – affects C. albicans growth with fluconazole. C. albicans CaCi-2 (fluconazole-resistant clinical isolate) + fluconazole, Alamar Blue growth, 48 h. growth inhibition, % (test concentration not listed). 0.57% of 300,000 active. AID 1979;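 active means most replicates above 75%; inconclusive means exactly half above 75%; inactive means most below 75%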;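 further: all wells also contain fluconazole at 8 µg/ml as a sub-toxic cotreatment; 0% = median of DMSO wells and 100% = median of geldanamycin control wells; wells of about 8 µL received 7.5 nL stock; the first replicate is given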
A1 inh – inhibitors of the anti-apoptotic protein A1, read as caspase activation | 0.066% of 330,000 active | AID 2462 | caspase activation, % (test concentration not listed) | MEF A1-2A-BIM cells, Caspase-Glo 3/7 luminescence, 3 h; percent of clofoctol response, vehicle zero;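 active means over half of replicate activation scores above 10%, or exactly half above 10 with the replicate mean above 10; inconclusive means replicate mean below 10 yet half the replicates above 10; inactive means over half of replicates below 10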;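 further: wells of about 30 µL received 50 nL stock; many hits fall short of the cut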
Vif A3G – inhibitors of Vif binding to APOBEC3G peptide, primary screen, biochemical, TR-FRET, GST-Vif 1-94, biotin-A3G peptide, dose response retest (AID 1117319) | TR-FRET GST-Vif / biotin-A3G peptide binding; higher % means a stronger effect; test concentration not given here; strong numbers were not always called active | inhibition, %, or IC50 in µM where a hit was titrated | 0.57% of 260,000 active;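 active means above the screen mean plus three standard deviations and confirmed in dose response; inconclusive means results disagree or hit not tested in dose response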;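 further: Vif residues 1-94 fused to GST binding biotinylated APOBEC3G peptide 110-148; 0% = full assay without inhibitor and 100% = GST in place of GST-Vif; retest series ran down from 100 µM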
T cruzi repl – T. cruzi replication inhibition. AID 1885. T. cruzi beta-gal in NIH3T3, luminescence, 90 h. 1.4% of 300,000 active. inhibition, % (test concentration not listed);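 active means mean inhibition across valid replicates above about 55%, limit read from the data; inconclusive means mean below that limit but half or more replicates reach it; inactive means mean below it, under half of replicates reach it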;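 further: signal also drops with host cell toxicity which is not excluded here; 0% = plate median of DMSO wells and 100% = zero luminescence signal; higher percent means less beta-gal luminescence so fewer parasites; stock transfer was 50 nL into about 50 µL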
* marks the source's active call; other numbers are inactive results; u = inconclusive; x = not tested or not shown. This is a random part of the collection. About 4.3% of those tested had a hit in this group.

SMILES | RanGTP-Imp inh | Beta cell apopt | LANA-H2A inh | AF4-AF9 inh | Calb FLC | A1 inh | Vif A3G | T cruzi repl
CCN1CCN(CC(=O)N2N=C(c3cccs3)CC2c2ccc(F)cc2)C(=O)C1=O (stereo not drawn) | -0.1 | -8.1 | 2.0 | -0.4 | 1.4 | 0.8 | -2.1% | -7.2
COc1ccccc1NC(=O)COC(=O)c1cc(C)oc1C | x | -2.2 | -2.9 | -2.2 | x | -0.6 | -4.5% | x
CCOC(=O)C1=C(c2ccccc2)OC(N)=C(C#N)C1C1CCCCC1 (stereo not drawn) | u | x | 4.5 | x | 13.8 | -0.1 | 3.5% | -4.6
CN(C)c1cccc(C(=O)OCC(=O)N(Cc2ccccc2)C2CCS(=O)(=O)C2)c1 (stereo not drawn) | -1.1 | -3.8 | 2.5 | 2.6 | 9.7 | -0.8 | x | -4.9
CCC(NC(=O)c1cc(COc2cncc(Cl)c2)on1)c1ccc(C)cc1 (stereo not drawn) | -1.1 | 5.9 | -2.3 | 0.7 | -0.1 | 0.1 | x | 27.4
CCCN(CC(=O)Nc1ccc(C)cc1Br)CC(=O)Nc1ccc(F)c(F)c1F | -2.8 | 3.8 | -2.9 | x | u | 0.0 | 3.3% | 13.1
O=C(CN1CCN(S(=O)(=O)c2ccccc2)CC1)Nc1ccc(Cl)c(Cl)c1 | -0.4 | 8.8 | 4.4 | x | 61.5 | 1.5 | -4.2% | 19.6
COCc1cc(=O)[nH]c(SCC(=O)c2ccccc2)n1 | 4.3 | -1.6 | 2.8 | 0.7 | 16.8 | -0.5 | x | 1.3
O=C(Nc1nc2ccccc2[nH]1)c1ccc([N+](=O)[O-])cc1 | -2.6 | 4.8 | 3.4 | -0.3 | -6.4 | -0.6 | 26.2% | 0.5
COc1ccccc1OCCNC(=O)CNC(=O)c1ccc(C(C)(C)C)cc1 | x | -4.6 | 2.2 | 0.3 | x | 0.7 | x | x
O=C(OC(C(=O)NCc1ccco1)c1ccc(Cl)cc1)c1cccs1 (stereo not drawn) | 4.5 | 0.2 | -5.5 | 1.1 | -6.7 | -0.5 | 4.1% | 0.1
O=C(O)C1CCCCC1C(=O)NCc1ccc(Cl)c(Cl)c1 (stereo not drawn) | 3.9 | -3.2 | 4.5 | -1.4 | 26.9 | 1.0 | x | -17.5
COc1cccc(CC(=O)OCC(=O)NC2CCCCCC2)c1 | -0.4 | -6.8 | -3.5 | -2.2 | -12.5 | 0.3 | -8.3% | -7.9
Cn1c(N2CCCC2)nc2c1c(=O)n(Cc1ccc(Cl)cc1)c(=O)n2C | -1.9 | x | 2.3 | x | -1.8 | -0.1 | -0.2% | 18.4
Cn1cccc1C(=O)NC(=O)CSc1cccc[n+]1[O-] | -1.3 | x | -0.8 | x | -5.2 | 1.7 | 1.8% | -6.4
COc1ccc(-c2c(C#Cc3ccsc3)c3cc(-c4ccc5c(c4)OCO5)ccc3n2C)cc1 | x | 0.8 | -6.9 | -0.2 | x | -0.5 | x | x
O=C(COc1coc(CN2CCc3ccccc3C2)cc1=O)N1CCOCC1 | -0.1 | 3.8 | -2.3 | -0.9 | 0.9 | 0.2 | x | -11.9
CC1CCCN(C(=O)c2ccc3nc[nH]c3c2)C1 (stereo not drawn) | -1.3 | -3.4 | -0.5 | x | -12.7 | -0.3 | -0.6% | 15.5
COc1cc(C)ccc1OCCOc1cc(C)ccc1Cl | 0.4 | x | 1.0 | x | u | -0.9 | 0.3% | 10.2
CCn1nnnc1SCC(=O)Nc1ccc(N(C)C)cc1 | 1.0 | -4.2 | 5.5 | 3.1 | -8.7 | -0.3 | x | 5.1
O=C1CC(c2ccccc2)CC2=C1CN(C1CCCCC1)CN2 (stereo not drawn) | x | -0.5 | -2.4 | x | x | -0.5 | u | x
CCN(CC)CCN(C(=O)CN1C(=O)CCC1=O)c1nc2cc3c(cc2s1)OCO3 | 7.1 | -7.2 | 1.4 | 7.7 | 2.2 | 1.6 | 15.0% | 43.6
CCOC(=O)CN1N=C(c2ccc(C)cc2)CCC1=O | 1.9 | -7.0 | -0.3 | 4.1 | 0.4 | 1.5 | 0.9% | -7.7
COc1cc(C(=O)NNC(=O)Cc2cccs2)cc(OC)c1OC | x | -6.2 | -4.1 | -1.3 | x | 1.6 | x | x
CC(=O)Oc1cccc(NC(=O)c2ccc3c(c2)C(=O)N(CC(C)C)C3=O)c1 | 1.8 | -2.2 | -3.6 | 0.9 | 13.7 | -4.5 | 1.8% | -8.6
N#CC1=C(S)N(c2ccc(F)cc2)C(c2ccco2)NC1=O (stereo not drawn) | 0.4 | 1.1 | -6.0 | -3.9 | 3.9 | 0.1 | -12.0% | -9.1
COc1ccccc1OCC(=O)N/N=C/c1cccc2cccnc12 | -0.3 | -2.2 | 1.9 | -6.1 | 2.0 | 0.5 | x | -10.0
COCC(=O)N/N=C\c1ccccc1OC/C=C/c1ccccc1 | 1.9 | 2.4 | -2.2 | 0.5 | -14.3 | -1.0 | x | -16.2
COc1ccccc1NC(=S)NCc1ccc2c(c1)cc(C)n2C | -2.2 | -11.4 | 1.4 | 6.6 | -28.0 | 0.4 | -2.0% | 6.1
CCOC(=O)c1cnc2c(cnn2C)c1Oc1ccc(OC)cc1 | -1.8 | 2.8 | 1.6 | 0.3 | 14.8 | -0.6 | -4.3% | -8.4
COCC1CCN(C(=O)C2CCC(=O)N(C3CCCCCC3)C2)CC1 (stereo not drawn) | -1.8 | -8.6 | -32.8 | -1.7 | -7.2 | 0.6 | x | -0.8
CCOC(=O)C1CCCN(S(=O)(=O)c2c(C)noc2C)C1 (stereo not drawn) | 0.2 | -3.2 | -0.5 | -1.3 | 12.4 | -0.6 | x | -15.4
CCOc1ccc(S(=O)(=O)N2CCC(C(=O)N3CCN(Cc4ccccc4)CC3)CC2)cc1 | u | x | 2.3 | -2.4 | 1.1 | 0.8 | x | -4.9
CN1C2=CC=CC=CC2=[N+](C)C12C=CC(=[N+]([O-])[O-])C=C2[N+](=O)[O-] (stereo not drawn) | -1.5 | 5.0 | -10.0 | -1.9 | 17.3 | 0.5 | -10.1% | 15.1
CN1CCN(CCC(=O)N/N=C/c2ccccc2F)CC1 | 2.4 | -1.1 | 0.6 | -4.3 | 11.7 | 1.5 | -6.2% | 1.1
Cc1ccc(NC(=O)CN(C)CC(=O)Nc2ccc(N3CCOCC3)cc2)cc1F | 3.0 | -1.9 | 3.3 | 6.8 | -0.4 | 0.8 | x | -18.9
CCC(C#CCN1CCCCC1)(CC)OCCC#N | -4.0 | -6.8 | 0.0 | x | 3.5 | -0.1 | -2.7% | 4.2
COc1ccc(Cc2nnc(NC(=O)C3CC(=O)N(c4ccccc4C)C3)s2)cc1OC (stereo not drawn) | -4.8 | x | -2.5 | 0.1 | 2.4 | 0.5 | -2.4% | -2.2
C[C@H](NC(=O)c1cc2cc(Cl)ccc2n1C)C(=O)N1CCC(C(=O)O)CC1 | 1.0 | 2.6 | -0.6 | -1.0 | 5.5 | 1.1 | -3.2% | 4.5
Cc1ccc(OCCn2cncn2)c([N+](=O)[O-])c1 | 0.8 | 0.4 | 3.2 | -3.4 | -2.8 | 0.9 | x | -12.2
Cc1nnc(SCC(=O)Nc2nc(-c3ccccc3)cs2)n1N | 0.3 | -3.9 | -2.9 | x | 22.9 | -0.4 | 2.4% | -0.9
COc1ccc(NC(=O)C(c2cc3c(cc2[N+](=O)[O-])OCO3)N(C)c2ccccc2)cc1 (stereo not drawn) | -2.4 | -1.8 | 1.7 | x | 21.6 | -0.4 | x | 27.4
Cc1cccc(NCc2cccc3ccccc23)n1 | -7.5 | 0.7 | -10.8 | -2.0 | -29.7 | -0.3 | x | 37.0
Cc1cc(/C=C2\SC(=Nc3ccc(N4CCOCC4)cc3)N(C)C2=O)c(C)n1-c1cccnc1 | 3.9 | -0.6 | x | x | -32.0 | 0.6 | x | 18.9
C=CCNc1nc(N)c([N+](=O)[O-])c(Nc2cccc(Cl)c2)n1 | -0.3 | -5.4 | 2.6 | -1.9 | 3.2 | -0.6 | x | -12.9
COc1ccc2cc(CO)n(C)c2c1 | x | -0.6 | 0.0 | 18.7 | x | 0.3 | x | x
COc1ccccc1CNS(=O)(=O)c1ccc2c(c1)NC(=O)CO2 | -0.3 | x | x | -0.7 | -1.7 | x | 5.6% | -3.6
COc1ccc(CN2CCNC(=O)C2CC(=O)N2CCCO2)c(OC)c1 (stereo not drawn) | 0.9 | -1.2 | 0.3 | 0.0 | -3.0 | -0.2 | 2.5% | 0.9
COc1ccc(CNC(=O)C(c2ccc(O)cc2)N(Cc2ccco2)C(=O)c2snc(C(N)=O)c2N)cc1 (stereo not drawn) | 3.8 | 0.4 | 3.0 | 5.1 | 10.3 | 1.2 | x | 10.4
Cc1cc(C)nc(SCC(=O)N/N=C/c2ccc3c(c2)OCO3)n1 | -0.5 | 0.0 | -2.6 | 0.0 | -28.3 | -3.2 | x | -18.2
O=C(Cn1c(C(=O)N2CCN(C3CCCC3)CC2)cc2sccc21)c1ccccc1 | -4.3 | 3.7 | 3.5 | 14.0 | -22.5 | 0.8 | 5.7% | 28.6
CC(C)Cc1[nH]c(=O)c(C#N)c2c1CCCC2 | 1.2 | 2.5 | -2.5 | x | 9.0 | -0.6 | -1.8% | -19.6
O=C(NCc1ccco1)c1ccc2c(c1)N(Cc1ccccc1)CCS2 | -0.8 | -1.3 | 4.6 | -1.6 | 3.5 | -0.9 | 5.1% | -4.6
Cc1nn(C)c(Cl)c1CN1CCCC(C(=O)Nc2ccc(-c3cscn3)cc2)C1 (stereo not drawn) | 2.3 | -7.6 | 2.3 | -3.7 | 11.1 | -0.1 | 0.7% | 14.8
COc1cccc(NC(=O)CN(C)C(=O)CCCc2nc3ccccc3c(=O)[nH]2)c1 | x | -9.7 | -1.9 | 1.5 | x | 1.7 | 4.7% | x
COc1ccc(C(OCC(O)CNC(C)c2ccccc2)c2ccc(OC)cc2)cc1 (stereo not drawn) | -0.3 | -1.6 | 3.1 | u | -11.6 | 0.0 | x | 33.6
O=C(CN1CCCC1)NC1C2CC3CC(C2)CC1C3 (stereo not drawn) | -7.7 | -7.2 | 1.7 | x | -13.6 | 0.1 | 2.2% | 5.6
COc1ccc(NC(=O)c2sc3nc(N4CCOCC4)c4c(c3c2N)CC(C(C)C)OC4)c(OC)c1 (stereo not drawn) | -2.4 | 6.8 | 4.3 | 0.0 | 1.7 | 0.2 | x | 18.9
O=C1C(NS(=O)(=O)c2ccc(Cl)cc2)=C(N2CCCCC2)C(=O)c2ccccc21 | 0.4 | 9.7 | 1.2 | 40.3* | 12.4 | 0.1 | u | 2.2
C(=C\c1ccccc1)/CSc1nnc(-c2ccccn2)n1Cc1ccco1 | u | 12.3 | -2.8 | x | -1.8 | -0.9 | 0.0% | -5.2
The list goes on:
SMILES | RanGTP-Imp inh | Beta cell apopt | LANA-H2A inh | AF4-AF9 inh | Calb FLC | A1 inh | Vif A3G | T cruzi repl
COc1ccc(CCNC(=O)Cn2nnc(-c3ccccc3F)n2)cc1OC | -2.8 | -6.2 | 2.5 | 3.4 | 7.7 | -0.4 | -3.8% | 0.2
C#CCOC(=O)C(NC(=O)c1ccccc1)=C1CCCCC1 | 0.8 | -0.4 | -1.1 | x | -2.2 | 0.1 | 0.6% | -1.8
COc1ccc(S(=O)(=O)NCc2cccnc2)cc1 | 0.5 | -10.2 | 3.0 | 1.9 | -17.2 | 0.8 | x | -10.7
CC(=O)c1c(NC(=O)C(C)C)nc(C)nc1-c1ccccc1 | 3.0 | -4.4 | 2.5 | x | -2.5 | 0.6 | 28.2% | -6.3
